Source: PubChem
Bead autofluor: flagged as autofluorescent in microsphere protease counterscreen | compound autofluorescence counterscreen, microsphere flow cytometry; stronger effect = higher value | fluorescence intensity (test concentration not listed) | hit rate 3.1% among 360,000 | AID 624483;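 active = at least 3 SD above the mean of all compounds, about 16000 in these data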;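 note: 100 nL of 1 mM stock went into each well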
ugtP null kill: growth inhibition of ugtP-null S. aureus, primary screen, RN4220 ugtP deletion, OD600. 16 h; some inactives read as strong as hits. growth inhibition, % (no concentration beside the values). hit rate 0.54% among 330,000. AID 1259309, 2017;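 active = z-score under -3 and OD600 up to 0.15 on both plates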;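 note: plate controls were untreated wells for no effect and antibiotic for full effect; wells of about 80 µL received 100 nL stock; the first replicate is given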
Mtb hypoxia rep: PubChem AID 1159583; M. tuberculosis hypoxia-regulated fluorescent reporter, fluorescence; fluorescence inhibition, % (no concentration beside the values); hit rate 0.1% among 300,000;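 active = 35 to 45% if threefold the growth effect, above 45% if 1.5-fold the growth effect; inactive = the rest, general growth blockers included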;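 note: wells of about 50 µL received 100 nL stock; 0% = vehicle wells and 100% = reference inhibitor wells; whole bacteria with a GFP reporter of the hypoxia response; strong numbers were not always called active; many hits fall short of the cut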
PrP 5UTR inh: inhibition of PrP 5' UTR reporter expression; cell-based PrP 5' UTR mRNA reporter, plate reader; inhibition, % (concentration not given with the values); hit rate 0.35% among 340,000; AID 488862, 2010;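 active = every replicate at 50% or more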;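 note: 0 = median of the neutral control wells; tested in H4 reporter cells; numbers are from one replicate; inactives centre near -14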
BJeLR lethal: MLPCN primary cell-based screen for lethality selective to Ras in HRASV12 cells | hit rate 0.17% among 300,000 | AID 1554, 2009 | BJeLR (HRASV12) viability, CellTiter-Glo ATP luminescence, 48 h; reference of the scale not given here | inhibition, % (no concentration beside the values);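 active = replicate mean above 50%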;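 note: 50 nL library stock added to about 25 µL; numbers are from one replicate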
RN4220 kill: growth inhibition of S. aureus RN4220, primary screen, OD600; 16 h; inhibition, % (no concentration beside the values); hit rate 0.33% among 330,000;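 active = z-score of -3 or lower and OD600 up to 0.18 on both plates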;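 note: plate controls were untreated cells for no effect and reference antibiotic for full effect; stock transfer was 100 nL into about 80 µL; one replicate is shown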
Mtb hypoxia rep growth: second read-out of Mtb hypoxia rep, no call of its own (marks repeat the call); growth inhibition, %; measured here: M. tuberculosis growth (absorbance);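 0% = vehicle and 100% = reference antibiotic; read after six days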
* marks the source's active call; other numbers are inactive results; / = not tested or not shown.

entry	structure	Bead autofluor	ugtP null kill	Mtb hypoxia rep	Mtb hypoxia rep growth
1	Cc1ccc(S(=O)(=O)N(C)C)cc1NC(=O)C(C)OC(=O)c1ccc2ccccc2n1 (stereo not drawn)	3889	-5	-17	4
2	CCc1nnc(NC(=O)CSc2ncnc3c2oc2ccccc23)s1	5999	-17	-2	16
3	CCOC(=O)CNC(=O)c1cc(-c2ccccn2)nc2c(C)c(Cl)ccc12	3956	2	14	10
4	COc1ccccc1/C=C/C=N/NC(=O)c1ccccn1	3086	/	/	/
5	Cc1ccc(S(=O)(=O)NCCCNC(=O)N2CCOCC2)cc1	9012	2	5	7
6	CCn1c(SCc2cccc(C)c2)nnc1-c1ccccc1	23697*	3	8	5
7	Cn1cnc(Sc2ncnc3nc[nH]c23)c1[N+](=O)[O-]	4294	/	/	/
8	CCOc1ncccc1C(=O)OCC(=O)c1cc(C)n(Cc2ccco2)c1C	4264	0	10	8
9	CCN(CC)S(=O)(=O)c1cccc(C(=O)N/N=C/c2cccc(O)c2O)c1	1966	/	/	/
10	CCN(CC)C(=O)C1CCCN(C(=O)Nc2ccc(NC(=O)N3CCCC(C(=O)N(CC)CC)C3)cc2)C1 (stereo not drawn)	6908	-2	0	6

entry	PrP 5UTR inh	BJeLR lethal	RN4220 kill
1	6	/	1.2
2	-4	-6	-7.8
3	-23	-10	0.4
4	-69	-2	/
5	-14	-3	2.0
6	-24	-8	11
7	-23	54*	/
8	-76	-4	-1.2
9	-5	4	/
10	-7	-2	7.1

Further results.
entry	structure	Bead autofluor	ugtP null kill	Mtb hypoxia rep	Mtb hypoxia rep growth
11	Cc1cccc(OC(C)C(=O)Nc2cc(Cl)ccc2-n2cncn2)c1 (stereo not drawn)	8708	3	7	4
12	CCCCOC(=O)C[N+](C)(C)CCOC1CC2CCC1(C)C2(C)C (stereo not drawn)	2382	89*	5	16
13	CC(=NNc1ccc([N+](=O)[O-])cc1)c1cc2ccccc2o1	/	9	9	11
14	O=C(Cc1cccc2ccccc12)NN=C/C=C/c1cccc([N+](=O)[O-])c1	/	-16	5	4
15	CCOc1ccc2nc(NC(=O)CSc3nc4cccnc4n3C)sc2c1	4023	-8	-4	7
16	COc1cc(NC(=O)CSc2nnc(-c3ccncc3)o2)cc(OC)c1OC	5825	0	2	9
17	c1ccc(NC2=NCCCS2)cc1	3541	5	8	6
18	Cc1cc(C(=O)NNC(=O)c2ccc(C)s2)c(C)o1	5086	9	-3	-4
19	CSc1ccc(Cl)c(C(=O)Nc2ccc(Cl)cn2)c1	4265	1	18	7
20	O=C(Cc1csc(-c2ccccc2)n1)NCc1cccs1	4350	7	16	11

entry	PrP 5UTR inh	BJeLR lethal	RN4220 kill
11	-17	/	3.6
12	4	7	-5.9
13	/	/	26
14	/	/	-7.3
15	-69	4	-1.3
16	-1	-1	2.0
17	-13	5	3.4
18	-19	3	3.4
19	-12	10	16
20	-24	0	0.0

(next part)
entry	structure	Bead autofluor	ugtP null kill	Mtb hypoxia rep	Mtb hypoxia rep growth
21	NNS(=O)(=O)c1ccc2c(c1)Cc1cc(S(=O)(=O)NN)ccc1-2	3151	0	1	0
22	O=C(c1ccco1)N1CCN(C(=O)c2ccc(-c3ccccc3Cl)o2)CC1	2896	-6	6	-2
23	CCCC(=O)Nc1c2c(nn1-c1ccccc1)CSC2	5462	-1	4	0
24	CCN(CC)C(=O)COc1ccc(S(=O)(=O)N2CCCC2)cc1	3877	1	9	9
25	CC1(C)CC(=O)c2cnc(NC(=O)C3CCCC3)nc2C1	5643	-3	1	1
26	CCOc1cc2c(cc1OCC)C(c1ccc(C(=O)O)cc1)NCC2 (stereo not drawn)	3955	9	-13	3
27	Cc1csc(CCc2nc(C)cs2)n1	3083	-10	1	9
28	CC(C(=O)Nc1ccccc1)N(c1cccc(Cl)c1)S(C)(=O)=O (stereo not drawn)	2645	-1	4	-1
29	O=C1CN(C(=O)COC(=O)Cc2ccccc2F)c2ccccc2N1	4251	9	5	-7
30	O=C(CSc1ncccn1)Nc1ccc2c(c1)OCO2	3355	0	8	14

entry	PrP 5UTR inh	BJeLR lethal	RN4220 kill
21	-15	7	-2.0
22	-35	/	2.0
23	0	5	1.8
24	-28	-2	1.3
25	-13	4	3.1
26	-10	1	2.2
27	6	-3	-12
28	-7	7	4.8
29	-13	/	3.2
30	-30	/	1.9

Further results
entry	structure	Bead autofluor	ugtP null kill	Mtb hypoxia rep	Mtb hypoxia rep growth
31	O=C(Nc1ccc2c(c1)OCCO2)c1ccc(Br)o1	2993	3	/	/
32	CC1C(c2ccccc2)N(C)C(c2ccccc2)CC1(O)c1ccccc1 (stereo not drawn)	17483*	-48	-3	1
33	COc1ccc(C2=NS(=O)(=O)N(C)C(C(=O)NCc3ccccn3)=C2)cc1OC	5902	-6	/	/
34	O=C(Nc1ccc(NC(=S)NC(=O)c2cccs2)cc1)c1ccccc1	9423	76	/	/
35	CC(C)(C)c1ccc(C=NOCC(=O)NCc2ccc(F)cc2)cc1	/	43	4	2
36	O=C1NCC(O)=C1C=Nc1ccccc1O	5387	/	/	/
37	CCCCN(c1ccccc1)c1ncnc2nc[nH]c12	5799	12	7	11
38	O=C(CN1C(=O)NC2(CCOc3ccccc32)C1=O)c1ccc(Br)cc1 (stereo not drawn)	4738	10	7	-1
39	COc1cc(SC)ccc1C(=O)Nc1nc(C)cc(C)n1	/	6	14	3
40	O=C(O)Cn1cc(/C=N/NC(=O)c2cc3cc(Br)ccc3o2)c2ccccc21	3628	/	/	/

entry	PrP 5UTR inh	BJeLR lethal	RN4220 kill
31	-114	3	0.6
32	-17	2	-5.0
33	-9	-12	-0.4
34	-29	12	-1.6
35	/	/	-7.0
36	4	-2	/
37	-11	-4	-0.9
38	-13	-7	2.9
39	-9	-13	4.7
40	-22	5	/

Next compounds follow:
entry	structure	Bead autofluor	ugtP null kill	Mtb hypoxia rep	Mtb hypoxia rep growth
41	NC(=NOC(=O)c1cc(Br)ccc1Cl)c1ccccn1	/	0	3	12
42	CC(=O)Nc1ccc(S(=O)(=O)N2CCc3ccccc3C2CC(=O)O)cc1 (stereo not drawn)	3470	13	10	11
43	O=C(CNC(=O)c1ccc(Br)cc1)c1ccc(Br)cc1	4381	16	-5	1
44	CC(C)N(C(C)C)S(=O)(=O)c1ccc(Cl)nc1	3963	4	7	1
45	Cc1cc(C(=O)CCC(=O)Nc2ccc(S(N)(=O)=O)cc2)c(C)s1	2832	7	18	1
46	O=C(c1ccc(Br)o1)N1CCc2ccccc21	/	4	14	6
47	O=C(CN1CCN(Cc2ccccc2Cl)CC1)N/N=C/C=C\c1ccccc1[N+](=O)[O-]	2016	/	/	/
48	CSc1ccc(C(=O)C2CCCN(C(=O)CCCn3cncn3)C2)cc1 (stereo not drawn)	3438	11	19	11
49	NCc1ccccc1COc1ccccc1	7051	-3	2	8
50	O=C(c1ccc2c(=O)n(-c3ccccc3)c(=O)[nH]c2c1)N1CCCCC1	10143	3	9	7

entry	PrP 5UTR inh	BJeLR lethal	RN4220 kill
41	/	/	4.6
42	-15	-4	-0.4
43	-12	-12	12
44	-13	-5	7.9
45	-16	/	4.4
46	/	14	7.3
47	0	7	/
48	-70	-8	2.7
49	-12	8	-2.4
50	-14	7	1.5

Continued (two carried over from the part before).
entry	structure	Bead autofluor	ugtP null kill	Mtb hypoxia rep	Mtb hypoxia rep growth
49	NCc1ccccc1COc1ccccc1	7051	-3	2	8
50	O=C(c1ccc2c(=O)n(-c3ccccc3)c(=O)[nH]c2c1)N1CCCCC1	10143	3	9	7
51	O=C(Nc1nc(=O)n(C(=O)C2CC2)s1)c1ccccc1	5769	0	10	7
52	CN(C)c1ccc(C=NNC(=O)c2ccc(NC(=O)c3ccccc3)cc2)cc1	/	0	9	8
53	Cc1ccc(-c2nn3c(=O)c(C)nnc3s2)cc1	9106	2	10	2
54	Cn1c(SCC(=O)Nc2cccc(F)c2)nnc1-c1cccnc1	4460	1	/	/
55	Cc1cccc(OCCNc2cc(N3CCOCC3)ccc2[N+](=O)[O-])c1	10704	-21	8	11
56	COCCNC(=O)CCn1c(=O)oc2ccccc21	4164	-3	0	6
57	Cc1ccc(S(=O)(=O)NCC(=O)N(CC(=O)NCC2CCCO2)c2ccc(Cl)cc2)cc1 (stereo not drawn)	5941	9	7	10
58	CC(=O)Nc1ccc(NC(=O)c2ccco2)cc1	22348*	3	2	3
59	CN(CC(=O)NCc1ccco1)S(=O)(=O)c1ccc2c(c1)c(=O)n(C)c(=O)n2C	4748	6	6	-3
60	Cc1c(Br)c(C(F)(F)F)nn1CC(=O)NCCCn1ccnc1	4379	6	15	-2

entry	PrP 5UTR inh	BJeLR lethal	RN4220 kill
49	-12	8	-2.4
50	-14	7	1.5
51	11	-7	15
52	/	/	3.0
53	-13	-14	3.3
54	-32	-3	3.1
55	-28	-6	4.6
56	-13	-10	1.8
57	-5	0	2.2
58	-19	-2	4.3
59	1	2	1.8
60	-1	-16	2.8

Next entries.
entry	structure	Bead autofluor	ugtP null kill	Mtb hypoxia rep	Mtb hypoxia rep growth
61	COc1cccc(CNCCSc2nnnn2C)c1	10456	3	-1	6
62	Cc1ccc(C(=O)NCCc2ccccc2)cc1	3717	14	/	/
63	COc1ccc(N2CC(C)Cn3c2nc2c3c(=O)n(Cc3ccc(F)cc3)c(=O)n2C)c(OC)c1 (stereo not drawn)	6016	1	-69	-5
64	COc1ccccc1/C=C(/C(=O)OCC(=O)Nc1cc(C)ccc1C)c1ccccc1	2524	-3	4	4
65	O=C1CCC/C(=N\NC(=O)c2ccc(CSc3cccc4cccnc34)cc2)C1	3885	/	/	/
66	C=CCc1ccccc1OCCOc1ccc([N+](=O)[O-])cc1/C=N/NC(N)=O	2889	/	/	/
67	CCOc1ccc(C=CC2=CC(C)(C)NC(=S)N2)cc1	/	5	-3	-3
68	COc1ccc(S(=O)(=O)NCC(=O)N(CC(=O)NCC2CCCO2)c2cc(C)ccc2C)cc1 (stereo not drawn)	2868	0	/	/
69	O=C(O)c1ccc(Cl)c(S(=O)(=O)N(Cc2ccccc2)c2ccccc2Cl)c1	4110	9	-1	-10
70	Oc1ccccc1C=NCCCCCCN=Cc1ccccc1O	4258	3	14	6
71	Cc1cccnc1NC(=O)c1ccc(S(=O)(=O)N2CCC(C)CC2)cc1	4331	7	5	-12

entry	PrP 5UTR inh	BJeLR lethal	RN4220 kill
61	-8	/	4.4
62	59*	0	2.6
63	1	-5	0.9
64	-13	5	-2.6
65	-16	13	/
66	-16	-6	/
67	/	/	6.4
68	2	-1	1.7
69	6	-9	20
70	-6	1	5.5
71	11	-17	2.7

Compounds shown so far that contain a Cl atom:
entry	structure	Bead autofluor	ugtP null kill	Mtb hypoxia rep	Mtb hypoxia rep growth
3	CCOC(=O)CNC(=O)c1cc(-c2ccccn2)nc2c(C)c(Cl)ccc12	3956	2	14	10
11	Cc1cccc(OC(C)C(=O)Nc2cc(Cl)ccc2-n2cncn2)c1 (stereo not drawn)	8708	3	7	4
19	CSc1ccc(Cl)c(C(=O)Nc2ccc(Cl)cn2)c1	4265	1	18	7
22	O=C(c1ccco1)N1CCN(C(=O)c2ccc(-c3ccccc3Cl)o2)CC1	2896	-6	6	-2
28	CC(C(=O)Nc1ccccc1)N(c1cccc(Cl)c1)S(C)(=O)=O (stereo not drawn)	2645	-1	4	-1
41	NC(=NOC(=O)c1cc(Br)ccc1Cl)c1ccccn1	/	0	3	12
44	CC(C)N(C(C)C)S(=O)(=O)c1ccc(Cl)nc1	3963	4	7	1
47	O=C(CN1CCN(Cc2ccccc2Cl)CC1)N/N=C/C=C\c1ccccc1[N+](=O)[O-]	2016	/	/	/
57	Cc1ccc(S(=O)(=O)NCC(=O)N(CC(=O)NCC2CCCO2)c2ccc(Cl)cc2)cc1 (stereo not drawn)	5941	9	7	10
69	O=C(O)c1ccc(Cl)c(S(=O)(=O)N(Cc2ccccc2)c2ccccc2Cl)c1	4110	9	-1	-10

entry	PrP 5UTR inh	BJeLR lethal	RN4220 kill
3	-23	-10	0.4
11	-17	/	3.6
19	-12	10	16
22	-35	/	2.0
28	-7	7	4.8
41	/	/	4.6
44	-13	-5	7.9
47	0	7	/
57	-5	0	2.2
69	6	-9	20
